# Assay outcomes as filed in PubChem BioAssay.
# Six1-Eya2 blk – qHTS Assay for Inhibitors of the Six1/Eya2 Interaction | Homeobox protein SIX1 (Homo sapiens) + Protein phosphatase EYA2 (Homo sapiens), … | AID 651725, 2012 | AlphaScreen GST-Six1/His-Eya2 binding, biochemical; hits give low values; control for the full effect not named in the record | hit rate 0.56% among 360,000 | activity change, % (concentration not given with the values); in the data active = activity change below about -65%; inconclusive = about -30% to -65%; inactive = above about -30%; note: % is set by controls: 0 for no effect and ±100 for the full control effect
# Target sequence (O00167 whole entry, looked up): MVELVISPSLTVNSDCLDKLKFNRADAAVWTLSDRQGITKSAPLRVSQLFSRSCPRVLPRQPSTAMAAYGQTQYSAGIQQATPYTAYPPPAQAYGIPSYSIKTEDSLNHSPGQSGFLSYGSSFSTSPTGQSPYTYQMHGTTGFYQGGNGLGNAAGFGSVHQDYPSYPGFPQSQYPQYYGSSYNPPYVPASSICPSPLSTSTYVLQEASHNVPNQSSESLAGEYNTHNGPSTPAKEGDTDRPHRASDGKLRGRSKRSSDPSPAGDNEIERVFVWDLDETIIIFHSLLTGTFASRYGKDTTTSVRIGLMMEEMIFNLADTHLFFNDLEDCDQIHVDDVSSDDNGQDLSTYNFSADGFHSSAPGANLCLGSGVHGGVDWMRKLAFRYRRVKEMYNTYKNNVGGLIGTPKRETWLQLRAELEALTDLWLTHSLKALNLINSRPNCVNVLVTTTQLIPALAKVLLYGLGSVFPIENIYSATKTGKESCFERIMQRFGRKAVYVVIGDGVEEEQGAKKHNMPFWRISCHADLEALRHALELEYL
# Target sequence (Q15475 whole entry, looked up): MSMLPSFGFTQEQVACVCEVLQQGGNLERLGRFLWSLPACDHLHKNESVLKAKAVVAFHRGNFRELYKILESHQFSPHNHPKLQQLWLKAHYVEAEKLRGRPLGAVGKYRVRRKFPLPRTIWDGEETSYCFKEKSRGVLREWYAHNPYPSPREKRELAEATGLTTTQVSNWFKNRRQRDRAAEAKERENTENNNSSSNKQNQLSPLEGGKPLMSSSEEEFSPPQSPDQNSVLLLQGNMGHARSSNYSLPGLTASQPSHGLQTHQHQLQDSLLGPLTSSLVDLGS
#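 AlphaScreen luminescence read after one hour at 37 °C in darkness. Pin-transferred compounds met GST-Six1 and His-Eya2 protein (5X stock 250 nM/500 nM) plus glutathione donor and Ni-chelate acceptor beads (5X, 50 ug/mL).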
# CtBP-E1A inh – qHTS Assay for Inhibitors of the CtBP/E1A Interaction. hit rate 0.49% among 340,000. AlphaScreen GST-E1A/His-CtBP binding, 1536-well; hits give low values; control for the full effect not named in the record. activity change, % (concentration not given with the values). CtBP / adenovirus E1A interaction (AlphaScreen); in the data active means activity change below about -65%; inconclusive means about -30% to -65%; inactive means above about -30%; note: % is set by controls: 0 for no effect and ±100 for the full control effect
#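 Homogeneous bead-based format: GST-tagged E1A captured on glutathione donor beads, His-tagged CtBP on nickel acceptor beads; compounds precede bead addition by 2 h at 37 °C.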
# D2 ag – Beta-Arrestin HTS for Positive Allosteric Modulators of the Human D2 Dopamine Receptor: Agonists; D(2) dopamine receptor (Homo sapiens), P14416; activation, % (test concentration not listed); hit rate 0.084% among 360,000; DiscoveRx PathHunter D2 beta-arrestin, luminescence, 90 min; 100% = 57 uM dopamine signal; in the data active = activation above about 40%; inconclusive = about 15% to 40%; inactive = below about 15%; note: compound concentration not given in the record; the text of the record calls up to 30% inactive
#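 DiscoveRx PathHunter D2 beta-arrestin cells (2,100/well) attached overnight, then compound-stimulated 90 min at 37 C in HBSS/10 mM HEPES/0.1% Tween-20 buffer; beta-galactosidase complementation read by luminescence after 1 h at ambient temperature. Dopamine 57 uM final (EC100) as control.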
# PINK1 modulator – A Quantitative High throughput Screen to Identify Chemical Modulators of PINK1 Expression; PINK1 immunofluorescence, high-content cytometry, 24 h; AID 624263, 2012; Potency, µM (titrated, usually from 76.6 µM), inactives show top-dose activation (PINK1 increase), hits mostly activators; hit rate 0.2% among 410,000; active = well fitted activation curve with a large enough effect; inconclusive = small, poorly fitted or top-dose-only effect; inactive = flat fitted curve, though single readings scatter; cell line not stated here;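 note: potency is the fitted concentration of half-maximal effect; % of control where 0% means no effect; nearly all actives have a fitted effect of over 65% in size; a mitochondrial uncoupler was the plate control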
#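 PINK1 protein level read as immunofluorescence by microplate cytometer in a fixed, stained stable cell line after 24 h exposure to five compound concentrations, with CCCP as control.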
# TRPML1 inh – qHTS for Inhibitors of the Human Mucolipin Transient Receptor Potential 1 (TRPML1) | activity change, negative = inhibition, % (concentration not given with the values) | hit rate 0.02% among 390,000 | TRPML1-inducible cells, Ca2+ dye fluorescence, FDSS; hits give low values; inhibition of EC80 agonist-evoked calcium signal; in the data active means activity change below about -50%; inconclusive means about -30% to -50%; inactive means above about -30%;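 note: stimulus is agonist 54-4 at its EC80 concentration; % is set by controls: 0 for no effect and ±100 for the full control effect; compound concentration not given in the record; the text of the record puts the active cut at -80%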
#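 TRPML1-DL cells, Tet-induced overnight (~16 h, 37 °C) at 1,500 cells/well, were loaded with Ca8 no-wash dye plus quencher for 45-90 min at room temperature. Compounds were pinned during FDSS kinetic reading; agonist 54-4 at EC80 (4 uM final) then added.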
# TRPML1 ag – qHTS for Agonists of the Human Mucolipin Transient Receptor Potential 1 (TRPML1); hit rate 0.12% among 410,000; AID 624414, 2012; activation, % (no concentration beside the values); TRPML1-expressing cells, Ca2+ dye fluorescence, FDSS; host cell line not named in the record; reference of the full effect not given here; Mucolipin-1 (Homo sapiens), Q9GZU1; in the data active = activation above about 50%; inconclusive = about 30% to 50%; inactive = below about 30%; note: 0% is about no effect; the text of the record puts the active cut at 80%
#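 Cells: TRPML1-DL, 1X Tet inducer, ~16 h at 37 degrees C/5% CO2. Dye: ABD Ca8 no-wash + quencher, 45-90 min RT. Read: 10 s baseline, compound add, 110 s agonist phase; 54-4 EC80 (4uM final), 110 s antagonist phase.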
# Numbers without * were called inactive; ? = inconclusive; . = no result given; [ ] = remark or other dose. Rows were taken by chance; any-hit rate near 1%.
# The line under a structure holds: TRPML1 inh, D2 ag, CtBP-E1A inh, TRPML1 ag, PINK1 modulator, Six1-Eya2 blk
O=C(NN1C(=O)C2C3CCC(O3)C2C1=O)c1ccc(Cl)cc1 (stereo unspecified)
  0, -7.1, -17, -0.3, -1.0%, -8
CC(=O)c1cccc(OCC(O)CN2CCN(S(=O)(=O)c3c(F)cccc3F)CC2)c1 (stereo unspecified)
  -19, -3.6, ., 0.5, -0.5%, 4
COc1ccc(NC(=O)c2ccc(-c3ccccc3C(F)(F)F)o2)cc1
  39, -3.1, 11, 1.2, 0.8%, 7
O=C(CSc1nnnn1-c1cccnc1)Nc1ccc(F)cc1F
  -23, 2.9, -1, 0.6, -0.3%, 13
CSc1ccccc1C(=O)OCC(=O)NC1CCCCCCC1
  4, 1.1, 4, 1.8, 3.0%, -2
Cc1ccccc1N=C1SCC(=O)N1Cc1ccccc1
  -9, -0.4, 29, 1.6, -1.5%, 21
COc1ccc(NC(=O)COc2coc(CN3CCc4ccccc43)cc2=O)cc1
  -6, 0.5, 7, 0.3, 6.9%, -2
COCC(C)n1c(C)cc(C(=O)CSc2ccc(NC(C)=O)cc2)c1C (stereo unspecified)
  24, -2.9, -3, -0.2, 0.1%, -8
COc1cc(=O)[nH]c(=O)n1C(=O)Cc1ccccc1
  1, -2.7, 3, 0.5, 2.5%, 5
COc1cc(OC)cc(C(=O)N[C@H](C(=O)OCC(=O)Nc2ccc(F)c(F)c2F)C(C)C)c1
  3, -7.3, 1, 0.3, 0.7%, -1
COc1cccc(C(=O)NCC(c2ccc(N(C)C)cc2)N2CCOCC2)c1OC (stereo unspecified)
  -6, ., ., -0.7, -0.6%, .
c1cnc(N2CC[N+]3(CCCC3)CC2)nc1
  -15, -0.6, -2, 2.5, -0.9%, 4
COc1ccc(C2C(C#N)=C(N)Oc3c2oc(CO)cc3=O)c(OC)c1OC (stereo unspecified)
  -10, -0.1, -6, 0.0, 1.5%[38.3 µM], -2
COc1ccc(/C=C/CN2CCCC(C(=O)c3ccc(OC)c(F)c3)C2)cc1 (stereo unspecified)
  -7, 1.9, 4, 0.6, 20%, -16
CC1(C)C/C(=N\O)c2cc3c(nc2C1)CCCC3
  -8, 0.4, -2, -0.5, -0.5%, 3
Cc1cccn2c(=O)c(C(=O)NC(C)c3ccccc3)c(O)nc12 (stereo unspecified)
  -4, ., ., -1.1, -1.9%, .
CCn1nc(C)c(CCC(=O)O)c1C
  4, 1.2, 1, 0.3, 2.7%, 7
COc1cc(/C=C/C(=O)OCC(=O)NCc2ccco2)ccc1OC(F)F
  1, -3.4, -4, 2.8, -0.9%, 0
CCOC(=O)c1c(NC(=O)c2cccnc2)sc(C(C)=O)c1C
  19, 3.9, 1, 0.9, 7.7%, 4
COc1ccc(-c2noc(CCC(=O)N3CCN(c4ccccc4C)CC3)n2)cc1
  16, 0.1, 5, 2.0, 1.2%, 2
N#Cc1c(C(F)(F)F)cc(=O)n2c1[nH]c1ccccc12
  -9, 13, 2, 0.0, ?, -1
CC1(CCOCc2ccccc2)NC(=O)NC1=O (stereo unspecified)
  6, 7.3, 5, -0.3, 0.2%, 9
CC(=O)c1c(OC(=O)c2ccc(C)cc2)c2ccccc2n1C
  27, -2.6, 3, 1.9, ., 0
O=C(O)C1C2CCC(C2)C1C(=O)Nc1cc(F)ccc1F (stereo unspecified)
  -1, 0.0, 4, 1.5, -0.2%, 4
CN1C(=O)CC2(C)C1=CCc1scnc12 (stereo unspecified)
  ., -3.2, 2, -0.2, 0.3%, 9
O=C(c1ccc(S(=O)(=O)NCc2ccco2)cc1)N1CCN(c2ccc(F)cc2)CC1
  0, -0.1, ., 2.8, -1.5%, -1
Cc1cccn2c(=O)c(/C=C(\C#N)c3nc4ccccc4n3C)c(Oc3ccc(Br)cc3)nc12
  37, ., ., 10, 5.5%, .
CCN(CC)CCCNC(=O)C(C)n1nc(C)c2sc3ccccc3c2c1=O (stereo unspecified)
  -8, -1.5, 3, 3.1, -1.3%, -1
O=C(Nc1ccccc1)C(Cc1cccs1)c1nn[nH]n1 (stereo unspecified)
  2, -2.4, 4, -0.2, 5.3%, 17
Cc1onc(-c2ccccc2Cl)c1C(=O)NC(=S)NCCc1ccccc1
  -14, -1.6, 6, 1.8, ?, 13
O=C(COC(=O)c1ccccc1[N+](=O)[O-])c1ccc2c(c1)OCO2
  -14, -0.9, -1, 2.3, 1.5%, -8
CCN(Cc1ccccc1)S(=O)(=O)c1ccc(F)c(C(=O)Nc2ccc(C(C)C)cc2)c1
  24, ., ., -0.4, -0.5%, .
O=C(Nc1cccc(Br)c1)c1cccc(OC(=S)N2CCOCC2)c1
  8, 2.3, -2, 2.8, -0.7%, 17
CC(=O)c1ccc(NC(=O)/C(Cl)=C/c2ccccc2)cc1
  -4, 1.3, 15, -0.3, -0.8%, 5
Cc1ccccc1-c1cn(-c2ccccc2)c(=S)[nH]1
  -6, -4.7, -10, 0.6, 0.9%, -5
CC1CCCCN1C(=O)C1CCCN(S(=O)(=O)c2cccc3nsnc23)C1 (stereo unspecified)
  9, -0.3, 0, -0.6, 1.2%, -7
CC(C)C[C@@H](CN)NC(=O)c1nc[nH]c1C(=O)N[C@@H](C)C(=O)CNC[C@H](C)NC(=O)c1nc[nH]c1C(=O)N[C@@H](Cc1ccccc1)C(=O)O
  -1, -1.7, -26, -0.5, 0.2%, -30
Cc1ccc(C2C=C(c3ccc(F)cc3)Nc3nc(CCCO)nn32)cc1 (stereo unspecified)
  -5, ., ., 4.1, -0.3%, .
O=C(Nc1nc2ccccc2s1)c1cnccn1
  3, 1.7, 9, -0.1, ., -8
CCc1nc2c(OCCOc3ccc(F)cc3)cccn2c1N(C)C(=O)c1ccco1
  ., 6.1, -1, -0.5, 1.5%, -6
COc1ccccc1-c1nc(-c2ccccc2)[nH]c(=O)c1C#N
  -1, -3.3, 2, 0.4, -1.3%, 0
COc1ccc(-n2c(C)cc(C(=O)CN3C(=O)NC4(CCc5ccccc54)C3=O)c2C)cc1 (stereo unspecified)
  -5, -5.4, ?, 0.2, 21%, -15
COCCN(C(=O)Cc1csc(-c2cccc(Cl)c2)n1)c1c(N)n(Cc2ccccc2)c(=O)[nH]c1=O
  9, 2.2, 0, 0.5, 2.0%, 0
CCCC(=O)N1CCCC1(C)C(=O)Nc1ccc2cn[nH]c2c1 (stereo unspecified)
  ., -2.7, -15, -0.4, -0.4%, 5
O=C1CN(C(=O)c2ccc(Br)o2)C(c2ccc(F)cc2)c2cc(Cl)ccc2N1 (stereo unspecified)
  1, -2.3, -6, 0.7, -0.9%, -24
C=CCn1c(SCC(C)=O)nc2scc(-c3ccco3)c2c1=O
  1, 9.3, 3, -0.1, 9.2%, -5
CC(C)c1cccc(-c2ccc3c(c2)S(=O)(=O)c2cccc(C(=O)NCc4ccco4)c2C3=O)c1
  5, 1.7, -7, -0.4, 4.7%, -2
CCC(=O)NCCc1nc2cc(NC(=O)c3cccc([N+](=O)[O-])c3)ccc2n1C
  16, -0.4, -2, -1.4, -1.8%, 3
O=[N+]([O-])c1c(NCCO)cc(N2CCCCCC2)c2nonc12
  27, -0.4, ., -0.2, -0.3%, 3
COc1ccc(C(=O)OC(C)CN2CCN(C)CC2)cc1 (stereo unspecified)
  7, -2.0, -1, -0.7, -2.1%, 4

# (list continues)
# The line under a structure holds: TRPML1 inh, D2 ag, CtBP-E1A inh, TRPML1 ag, PINK1 modulator, Six1-Eya2 blk
COc1ccc(CCNC(=O)c2ccc3c(c2)CCN3S(C)(=O)=O)cc1OC
  -8, ., ., -0.5, 2.5%, .
Cc1cc(C)n(-c2ccc(C(=O)OCC(=O)NCc3ccc(F)cc3)cc2)n1
  -6, -5.5, 0, -0.3, 1.1%, 9
Cc1c(C(=O)OC2CCCCC2)[nH]c2c1C(=O)CC(c1ccc(C(C)(C)C)cc1)C2 (stereo unspecified)
  -15, ., ., 0.0, 0.1%, .
CC(C)Sc1nc2sc(-c3ccccc3)cc2c(=O)n1N
  5, -2.9, 5, -0.5, 8.6%, 6
Cn1ccc2cc(S(=O)(=O)N3CCN(C(=O)Nc4ccc(F)cc4F)CC3)ccc21
  -15, ., ., 2.5, 0.5%, .
CN(C(=O)c1cccc(NC(=O)Cc2ccc(NC(=O)C3CCN(C(=O)CCc4ccccc4)CC3)cc2)c1)C1CCC1
  16, 4.1, -5, 0.5, 1.7%, -12
COc1ccc(CCNC(=O)c2ccc(S(=O)(=O)N3CCCCC3)cc2)cc1
  4, -4.8, ., -0.4, -1.9%, 10
COc1ccc(C(=O)Nc2cccc(C(=O)NCc3ccco3)c2)cc1
  1, 4.2, -3, -1.2, 2.8%, -13
COc1nc(C)nc(NC(=O)NS(=O)(=O)c2ccc(C)cc2)n1
  -1, -1.5, 9, -0.2, -0.6%, 1
COc1ccc(OCC(=O)Nc2c(C(=O)N3CCN(C)CC3)oc3ccccc23)cc1
  13, -2.6, -1, 0.3, 1.2%, -1

# Reformatted bar-delimited: part of the list above
smiles | TRPML1 inh | D2 ag | CtBP-E1A inh | TRPML1 ag | PINK1 modulator | Six1-Eya2 blk
CC(C)Sc1nc2sc(-c3ccccc3)cc2c(=O)n1N | 5 | -2.9 | 5 | -0.5 | 8.6% | 6
Cn1ccc2cc(S(=O)(=O)N3CCN(C(=O)Nc4ccc(F)cc4F)CC3)ccc21 | -15 | . | . | 2.5 | 0.5% | .

# Continued:
# The line under a structure holds: TRPML1 inh, D2 ag, CtBP-E1A inh, TRPML1 ag, PINK1 modulator, Six1-Eya2 blk
Cc1cc(C)n2nc(SCC(=O)N/N=C/c3ccccc3F)nc2n1
  -9, -1.8, -15, 0.3, ?, -11
O=C(NCC(c1ccco1)N1CCc2ccccc21)c1ccccc1 (stereo unspecified)
  -13, -1.8, -14, 0.6, -0.1%, -20
COc1cccc(C2=NS(=O)(=O)N(C)C(C(=O)Nc3cccc(O)c3)=C2)c1
  -13, ., ., 1.2, 1.8%, .
Cn1c(=O)cc(N)n(-c2ccccc2)c1=O
  -8, -2.8, 6, -0.5, 1.7%, 10
COc1ccccc1C(=O)Nc1ccc2c(c1)CCCN2C(=O)c1ccccc1
  1, -1.9, -3, -1.2, 2.6%, -7
COc1ccc(-n2ncc(C(=O)N3CCN(c4ncccn4)CC3)c2C2CCN(C(=O)OC(C)(C)C)CC2)cc1
  -14, ., ., -0.1, 0.7%, .
O=C(NCCc1ccccc1)c1ccc2c(c1)N(Cc1ccc(F)cc1)C(=O)CS2
  -7, ., ., 1.7, 0.0%, .
COc1ccc2c(c1)OC[C@H]1[C@H]2N2C(=O)CN(Cc3ccc(Cl)cc3)C(=O)[C@@]2(C)[C@H]1c1ccccc1
  33, 4.5, 15, 0.1, 0.2%, 9
